PINK1 expr mod: modulators of PINK1 expression | PINK1 immunofluorescence, high-content cytometry, 24 h | Potency, µM (series often up to 76.6 µM), for inactives: at the highest dose activation (PINK1 increase), actives largely listed as activators | 410,000 tested, 0.2% active | AID 624263; active = well fitted activation curve with a large enough effect; inconclusive = small, poorly fitted or top-dose-only effect; inactive = flat fitted curve, though single readings scatter; cell line not stated here;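 note: potency is the fitted concentration of half-maximal effect; % of control where 0% means no effect; nearly all actives have a fitted effect of over 65% in size; a mitochondrial uncoupler was the plate control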
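Compound titrations (5 concentrations, 24 h) on a stable cell line; DMSO and CCCP controls. Endpoint: fixed-cell PINK1 immunofluorescence with mitochondrial, cell and nuclear markers, scanned by microplate cytometer.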
D2 PAM: positive allosteric modulators of human D2 dopamine receptor. DiscoveRx D2 beta-arrestin cells, luminescence, 90 min; 100% = 57 uM dopamine signal. potentiation, % (concentration not given with the values). 360,000 tested, 0.23% active; active = potentiation of 50% or more; inconclusive = 30% to 50%; inactive = 30% or less;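 note: compound concentration not given in the record; tested on top of an EC20 dose of dopamine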
Target sequence (P14416 whole entry, looked up): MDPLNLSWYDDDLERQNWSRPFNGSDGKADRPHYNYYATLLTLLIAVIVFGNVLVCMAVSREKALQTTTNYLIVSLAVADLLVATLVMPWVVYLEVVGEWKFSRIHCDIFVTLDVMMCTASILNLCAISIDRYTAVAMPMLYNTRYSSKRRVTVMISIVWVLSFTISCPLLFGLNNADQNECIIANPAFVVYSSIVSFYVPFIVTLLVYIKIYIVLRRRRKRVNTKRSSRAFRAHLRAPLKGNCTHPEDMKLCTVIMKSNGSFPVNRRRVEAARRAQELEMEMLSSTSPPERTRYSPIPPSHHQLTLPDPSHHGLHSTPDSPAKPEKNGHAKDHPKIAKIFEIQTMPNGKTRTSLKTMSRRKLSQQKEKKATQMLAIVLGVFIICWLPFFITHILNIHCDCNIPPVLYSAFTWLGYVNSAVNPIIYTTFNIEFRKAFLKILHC
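PathHunter beta-arrestin assay in DiscoveRx D2 cells. Compounds were added with an EC20 of dopamine (50 nM final) for 90 min at 37 deg C. Luminescence was read 1 h after detection reagent, with 57 uM dopamine as the EC100 control.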
TRPML1 inh: inhibitors of human TRPML1 channel. Q9GZU1. TRPML1-inducible cells, Ca2+ dye fluorescence, FDSS; stronger effect = lower value; inhibition of EC80 agonist-evoked calcium signal. activity change, negative = inhibition, % (concentration not given with the values). 390,000 tested, 0.02% active. AID 624415; in the data active means activity change below about -50%; inconclusive means about -30% to -50%; inactive means above about -30%;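 note: stimulus is agonist 54-4 at its EC80 concentration; % is set by controls: 0 for no effect and ±100 for the full control effect; compound concentration not given in the record; the text of the record puts the active cut at -80%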
Target sequence (Q9GZU1 whole entry, looked up): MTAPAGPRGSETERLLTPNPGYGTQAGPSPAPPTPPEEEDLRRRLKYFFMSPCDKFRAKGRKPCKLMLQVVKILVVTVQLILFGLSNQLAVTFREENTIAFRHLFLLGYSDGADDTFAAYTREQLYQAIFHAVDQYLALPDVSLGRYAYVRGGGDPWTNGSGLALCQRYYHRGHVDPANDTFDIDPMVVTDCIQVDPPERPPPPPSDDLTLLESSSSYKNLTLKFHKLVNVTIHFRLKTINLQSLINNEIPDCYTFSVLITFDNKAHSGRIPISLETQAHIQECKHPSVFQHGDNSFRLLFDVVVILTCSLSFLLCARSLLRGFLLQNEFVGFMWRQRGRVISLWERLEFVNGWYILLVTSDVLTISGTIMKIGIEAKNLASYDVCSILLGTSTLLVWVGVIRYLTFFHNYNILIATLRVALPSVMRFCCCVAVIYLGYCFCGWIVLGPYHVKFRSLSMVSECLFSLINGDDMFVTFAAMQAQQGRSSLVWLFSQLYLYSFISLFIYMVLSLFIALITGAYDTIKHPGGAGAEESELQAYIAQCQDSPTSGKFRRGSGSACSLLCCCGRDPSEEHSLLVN
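Tet-induced TRPML1-DL cells loaded with Ca8 no-wash calcium dye were read kinetically on FDSS. Compound addition was followed by EC80 agonist 54-4 (4 uM final); inhibition was read over 110 s.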
TRPML1 ag: activates the human TRPML1 channel | 410,000 tested, 0.12% active | TRPML1-expressing cells, Ca2+ dye fluorescence, FDSS; host cell line not named in the record; reference of the full effect not given here | activation, % (test concentration not listed); in the data active = activation above about 50%; inconclusive = about 30% to 50%; inactive = below about 30%; note: 0% is about no effect; the text of the record puts the active cut at 80%
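In this qHTS format, compounds were pin-transferred onto Ca8-dye-loaded TRPML1-DL cells induced with Tet overnight, and intracellular Ca2+ fluorescence was recorded kinetically for 110 s after a 10 s baseline. A subsequent 4uM final 54-4 (EC80) addition followed by a second 110 s read served as the antagonist phase.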
Six1-Eya2 inh: inhibitors of human Six1/Eya2 interaction; 360,000 tested, 0.56% active; Q15475+O00167; AlphaScreen GST-Six1/His-Eya2 binding, biochemical; stronger effect = lower value; control for the full effect not named in the record; activity change, % (test concentration not listed); AID 651725; in the data active = activity change below about -65%; inconclusive = about -30% to -65%; inactive = above about -30%; note: % is set by controls: 0 for no effect and ±100 for the full control effect; compound concentration not given in the record
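Six1/Eya2 binding was read as AlphaScreen signal after compounds were pinned into GST-Six1 plus His-tagged Eya2 (5X stock 250/500 nM) in pH 8.0 Tris/NaCl/TCEP buffer, beads added, then incubated 1 h, 37 C, dark.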
D2 ag: human D2 receptor agonism in beta-arrestin assay; 360,000 tested, 0.084% active; AID 624465; DiscoveRx PathHunter D2 beta-arrestin, luminescence, 90 min; 100% = 57 uM dopamine signal; activation, % (no concentration beside the values); in the data active = activation above about 40%; inconclusive = about 15% to 40%; inactive = below about 15%; note: compound concentration not given in the record; the text of the record calls up to 30% inactive
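Agonist mode: compounds alone added to overnight-plated D2 PathHunter cells for 90 min at 37 C, with 57 uM final dopamine (EC100) defining full response. Beta-arrestin recruitment detected by chemiluminescent reagent, read after 1 h at ambient temperature.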
Numbers without * were called inactive; ? = inconclusive; . = not tested or not shown; [ ] = remark or other dose. Hits appear at their usual frequency, and some 1% of all compounds hit somewhere here.

SMILES	PINK1 expr mod	D2 PAM	TRPML1 inh	TRPML1 ag	Six1-Eya2 inh	D2 ag
COC(=O)C(C)NC(=O)CNS(=O)(=O)c1ccc(F)cc1 (configuration not stated)	0.3%	-3	-8	-0.5	-1	-2.2
CSc1ncc(Cl)c(C(=O)Nc2c(C(=O)c3ccc(C)cc3)oc3ccccc23)n1	-0.4%	.	-8	-0.8	.	.
O=C(CSc1nccc(-c2cccs2)n1)Nc1ccc(F)c(Cl)c1	-0.3%	-29	-11	-0.2	2	-1.0
CCc1ccccc1NC(=O)CC1NCCNC1=O (configuration not stated)	-0.4%	.	6	-0.4	.	.
CC(Sc1nc2ccccc2[nH]1)C(=O)O (configuration not stated)	2.8%	-4	-5	-1.3	4	0.5
Nc1ccc(-c2nnnn2-c2ccc(N)cc2)cc1	-1.1%	0	11	0.5	10	-2.8
O=C(CSc1ccc(Cl)cc1)NC(=O)NC1CCCC1	12%	-21	18	1.3	11	7.5
C[C@@H]1CN([C@@H](C)CO)C(=O)Cc2cc(NS(=O)(=O)c3ccccc3)ccc2O[C@H]1CN(C)Cc1ccncc1	1.1%	-6	42	0.5	1	-2.3
CCC1Oc2ccc(C)cc2N(CC(=O)NCCc2ccc(OC)c(OC)c2)C1=O (configuration not stated)	-0.8%	-1	21	-0.9	5	4.8
CC(NC(=O)Cn1nc(C(=O)O)c2ccccc2c1=O)c1ccccc1 (configuration not stated)	0.4%	-8	12	1.0	6	-1.4
COC(=O)c1ccc(NS(=O)(=O)c2ccc3c(c2)n(C)c(=O)n3C)cc1	2.9%	-5	9	0.5	-13	-3.3
Oc1c(CN2CCCCC2)cc(Br)c2cccnc12	3.0%	-16	-3	3.4	-91*	-6.6
COc1ccc(NC(=O)CSc2nnc(-c3cc(C)[nH]n3)n2N)cc1	1.7%	-6	4	-0.7	1	-2.6
CC(=O)Nc1ccc(SC(C)C(=O)NC(N)=O)cc1 (configuration not stated)	-2.5%	-5	8	1.2	6	-1.2
CCOC(=O)CNC(=O)CSc1nc2cccnc2n1CC	4.1%	1	8	-0.6	-1	-0.4
O=C(NCCCN1CCCC1)c1ccc(CS(=O)(=O)c2ccc(Br)cc2)o1	-0.5%	-9	-15	-0.1	-3	-0.4
CCOc1ccc([C@@H]2CC=C(C(=O)O)[C@H](c3ccc(Cl)cc3)N2S(=O)(=O)c2ccc(C)cc2)cc1	-1.0%	-6	4	-0.5	6	0.1
Cc1ccc2[nH]c(=O)cc(C(=O)OC(C)C)c2c1	0.5%	10	-6	-0.9	-6	-1.8
O=C(NCCN1C(=O)S/C(=C\c2cccs2)C1=O)c1ccco1	3.2%	-9	16	-0.4	2	-7.8
CCS(=O)c1ccccc1C(=O)OCC(=O)Nc1ccc2ccccc2c1 (configuration not stated)	1.5%	1	22	4.7	-4	6.0
COc1cc(OC)cc(C(=O)Nc2cccc(C(C)=O)c2)c1	-0.2%	-12	-6	0.3	-1	-1.0
O=C(CN1C(=O)NC2(CCCc3ccccc32)C1=O)NCc1ccco1 (configuration not stated)	-0.5%	-11	-8	2.1	7	1.0
CCOC(=O)c1cccc(NC(=O)C2CCCN(c3nnc(N4CCCC4=O)s3)C2)c1 (configuration not stated)	6.5%	-3	6	1.4	-21	-3.5
NS(=O)(=O)c1ccc(CCNC(=O)C2CCN(S(=O)(=O)c3cccc4cccnc34)CC2)cc1	-1.6%	-8	1	-0.7	-1	-5.4
CN(C)c1nc(/C=C(\C#N)C(N)=O)c(Cl)n1-c1ccc(F)cc1	-1.9%	-4	-7	-0.7	-3	4.3
The results go on.
SMILES	PINK1 expr mod	D2 PAM	TRPML1 inh	TRPML1 ag	Six1-Eya2 inh	D2 ag
O=C(COC(=O)c1cc2ccccc2cc1O)Nc1ccccc1F	7.2%	0	7	1.2	0	3.1
O=c1ccc(-c2ccc(S(=O)(=O)NCc3cccc(Br)c3)s2)n[nH]1	12%	-6	33	0.6	4	1.2
CC(=O)N1N=C(c2ccc(C)c([N+](=O)[O-])c2)OC1(C)C	-0.8%	1	57	1.9	-3	0.5
[O-]/[N+](=C\c1ccncc1)c1ccc(Br)cc1	-0.2%	0	3	1.5	0	0.0
CCC(NC(=O)c1ccccc1NC(=O)c1ccc(C)cc1)C(=O)O (configuration not stated)	3.6%[38.3 µM]	-5	-12	0.9	4	-1.7
COc1cccc(C2=NOC(C(=O)N3CCN(c4ccccc4)CC3)C2)c1OC (configuration not stated)	-1.0%	-10	-9	0.3	-4	-6.5
Cc1ccc(NC(=O)N2CCC(CN3CCCCC3)CC2)c(Cl)c1	-1.5%	.	-10	-0.2	.	.
CS(=O)(=O)N1CCc2cc(C(=O)Nc3ccc(Cl)c(C(F)(F)F)c3)ccc21	6.8%	.	6	-0.4	.	.
O=C1c2[nH]nc(-c3ccccc3O)c2C(c2cccc(Cl)c2)N1Cc1cccnc1 (configuration not stated)	1.7%	.	15	-0.9	.	.
c1ccc(-c2cc3c(N4CCN(c5ccccc5)CC4)ncnc3s2)cc1	0.1%	-24	6	-0.4	-11	-1.4
COc1ccc(C)cc1S(=O)(=O)Nc1cc2c3c(c1)CCN3C(=O)CC2	6.7%	6	10	-0.7	-2	-3.6
NNC(=O)c1ccc(Oc2cc(Cl)cc(Cl)c2)o1	3.5%	10	?	0.3	-1	-1.3
CC(C)(C)NC(=O)COC(=O)c1cc(S(=O)(=O)N2CCCCC2)ccc1N1CCOCC1	1.1%	-20	6	-0.5	3	-2.2
N#Cc1cc(-c2ccccc2)nc(Oc2ccc(Cl)cc2)n1	11%	16	32	0.8	0	1.5
COc1ccccc1C(=O)Nc1ccc2c(c1)nc(CN1CCN(C(C)=O)CC1)n2C	2.8%	14	25	-0.2	0	1.8
O=[N+]([O-])c1ccccc1/C=N/N1CCN(c2ccc(Cl)cc2)CC1	11%	-14	52	-1.4	?	-3.7
COc1cccc(-c2cc(C(=O)NN3CCOCC3)c3ccccc3n2)c1	5.5%	-21	-13	-0.2	4	0.6
O=C(CN1C(=O)/C(=C\c2cccc(F)c2)Oc2ccccc21)N1CCN(c2ccccn2)CC1	11%	-17	0	0.1	4	-3.4
CCCCN(C)C(=S)Nc1ccc2nc3n(c(=O)c2c1)CCCCC3	0.2%	-10	33	-0.1	-15	4.3
CC1=C(CC(=O)NCC(=O)NCC(=O)O)c2cc(F)ccc2/C1=C/c1ccc(S(C)=O)cc1 (configuration not stated)	-0.5%	6	25	2.2	-2	3.5
C[C@@H](C(=O)NCCc1c[nH]c2ccccc12)[C@@H]1C[C@@]1(C)[C@@H](NC(=O)OCc1ccccc1)c1ccccc1	0.2%	-15	2	-0.4	-17	-0.3
CC(O)(P(=O)(O)O)P(=O)(O)O	1.1%	-2	-10	0.3	8	-4.9
CCOC(=O)c1ccc(CNCc2ccccc2)cc1	8.3%	-32	-2	0.7	10	-0.5
CCOc1nc(NCCO)nc(Nc2ccccc2F)n1	-1.7%	3	17	1.9	-1	5.4
CC(=O)c1cccc(NC(=S)Nc2cccc3ccccc23)c1	-1.5%	-21	-7	-0.9	-8	-4.3

Part of the list above in order of number of heavy atoms, high to low:
SMILES	PINK1 expr mod	D2 PAM	TRPML1 inh	TRPML1 ag	Six1-Eya2 inh	D2 ag
COc1cccc(-c2cc(C(=O)NN3CCOCC3)c3ccccc3n2)c1	5.5%	-21	-13	-0.2	4	0.6
O=C(COC(=O)c1cc2ccccc2cc1O)Nc1ccccc1F	7.2%	0	7	1.2	0	3.1
Cc1ccc(NC(=O)N2CCC(CN3CCCCC3)CC2)c(Cl)c1	-1.5%	.	-10	-0.2	.	.
N#Cc1cc(-c2ccccc2)nc(Oc2ccc(Cl)cc2)n1	11%	16	32	0.8	0	1.5
CCOc1nc(NCCO)nc(Nc2ccccc2F)n1	-1.7%	3	17	1.9	-1	5.4
CC(=O)N1N=C(c2ccc(C)c([N+](=O)[O-])c2)OC1(C)C	-0.8%	1	57	1.9	-3	0.5

Other compounds follow:
SMILES	PINK1 expr mod	D2 PAM	TRPML1 inh	TRPML1 ag	Six1-Eya2 inh	D2 ag
Cc1ccc(C(c2c(O)nc3n(c2=O)CCS3)c2c(O)nc3n(c2=O)CCS3)cc1	-0.1%	-11	19	2.4	7	-5.6
C=CCn1c(SCC(O)Cn2c3ccccc3c3ccccc32)nnc1-c1ccco1 (configuration not stated)	-0.5%	8	-10	-0.3	-9	1.7
O=C(NCCCC(=O)N1CCCCC1)c1ccc(Cl)cc1	-0.1%	-20	7	-0.2	-2	-5.4
C/C(=C\C(=O)OCCCCCCCCC(=O)O)C[C@@H]1OC[C@H](C[C@@H]2O[C@H]2[C@@H](C)[C@H](C)O)[C@@H](O)[C@H]1O	3.9%	0	-4	0.3	1	6.6
O=C(Nc1ccccc1-c1ccccc1)c1ccccc1[N+](=O)[O-]	-0.8%	-6	-5	-0.2	2	-4.1
CN(c1ccc(C(=O)NCCSC(C)(C)C)cc1)S(=O)(=O)c1ccccc1	-1.5%	-4	14	3.2	29	6.8
CSc1nnc(NC(=O)c2ccc(C)c(S(=O)(=O)N3CCOCC3)c2)s1	-1.3%	-22	24	-0.4	-13	1.1
Cc1ccc(OCc2nnnn2-c2ccccc2)cc1	0.0%	-10	-4	-0.8	14	-0.3
CC1CCN(C(=O)/C(=C\c2ccccc2)NC(=O)c2ccccc2)CC1	0.5%	-7	-3	0.3	2	-3.1
O=C(Nc1ccncc1)C1CCN(S(=O)(=O)c2ccc(Cl)c(C(F)(F)F)c2)CC1	4.9%	-5	13	0.4	3	-1.7
COc1ccc(-c2csc(NC(=O)CN3C(=O)CCC3=O)n2)cc1	1.7%	-3	7	-0.1	1	-5.2
O=C(CCc1ccccc1)NNC(=O)COc1ccc(Br)cc1	2.1%	0	4	-0.4	7	-1.8
CCOC(=O)C(NC(=O)c1ccc(OC)cc1)(OCC1(CC)COC1)C(F)(F)F (configuration not stated)	2.1%	-42	8	-0.8	2	-5.1
O=C(Cn1nc(C(F)(F)F)c2c1CCCCC2)N1CCOCC1	0.1%	-5	-9	1.7	1	-3.1
O=C(/C=C/c1ccccc1)c1ccc(NC2=NCCCS2)cc1	-1.4%	-15	-23	0.3	3	-3.1
O=[N+]([O-])c1cccc(S(=O)(=O)/N=C(/Nc2ccccc2)c2ccccc2)c1	-0.1%	-19	-15	-0.1	0	-4.6
COC(=O)c1ccc(COc2ccccc2/C=C(\C#N)C(=O)Nc2ccc(C)cc2C)cc1	6.6%	3	44	-1.1	-1	3.5
O=C(c1ccco1)N1CCN(c2c([N+](=O)[O-])nn(-c3ccc(Cl)cc3)[n+]2[O-])CC1	3.2%	22	6	0.7	10	2.6
CCN(CC)S(=O)(=O)c1ccc(=O)n(CC(=O)N2CCCc3cc(C)ccc32)c1	1.1%	-3	21	3.3	0	-4.8
COc1ccccc1NS(=O)(=O)c1cccc(C(=O)N/N=C/c2ccc3c(c2)OCCO3)c1	0.6%	-4	12	2.5	?	-1.6
COCCN(CCOC)C(=O)CSc1ccc(S(=O)(=O)N2CCN(C)CC2)cn1	1.4%	5	3	-0.4	6	0.4

High-throughput results: PubChem BioAssay, National Center for Advancing Translational Sciences (NCATS)
